Source: PubChem BioAssay
VACV mCherry inh: vaccinia inhibition (mCherry reporter); Vaccinia virus mCherry reporter infection, fluorescence; about a quarter of the inactives have no number; Potency, µM (doses to about 36.5 µM), inactives show at the top dose activity change, negative = inhibition, hits mostly inhibitors; 310,000 compounds, 0.63% hits; AID 720579; active = well fitted inhibition curve with a large enough effect; inconclusive = small, poorly fitted or top-dose-only effect; inactive = no such curve, though single readings can be large or run the other way; tested in A549 cells; also: nearly all actives have a fitted effect of over 35% in size; inactives centre near -10
Vaccinia Venus: vaccinia inhibition (Venus reporter). 330,000 compounds, 0.46% hits. AID 720580. Vaccinia virus Venus reporter expression, fluorescence. Potency, µM (top dose mostly 36.5 µM), for the others: top-dose activity change, negative = inhibition, hits mostly inhibitors; active means well fitted inhibition curve with a large enough effect; inconclusive means small, poorly fitted or top-dose-only effect; inactive means no such curve, though single readings can be large or run the other way; tested in A549 cells; also: nearly all actives have a fitted effect of over 30% in size; inactives centre near -10
* hit, by the source's call; i = inactive; u = inconclusive; x = no result given; & = joins results of further samples; [ ] = another dose, or the depositor's remark. % is scaled to controls: 0 for no effect and ±100 for the full control effect; potency is read from the fitted curve at half-maximal effect. The order is random; 0.82% or so of the library scored in one or more.

No.	mol	VACV mCherry inh	Vaccinia Venus
1	COc1cccc(/C=C(\C#N)C(=O)NC2CCS(=O)(=O)C2)c1 (stereo not given)	i	-7%
2	COc1ccccc1/C=C/C=N/n1c(-c2cc(-c3ccccc3)n[nH]2)n[nH]c1=S	-3%	-14%
3	COc1ccc(Br)c(C(=O)N2CCN(S(=O)(=O)/C=C/c3ccccc3)CC2)c1	-21%	-27%
4	O=C(Nc1ccc(N2CCOCC2)cc1N1CCOCC1)c1ccc([N+](=O)[O-])cc1Cl	-30%	-20%
5	NNC(=S)Nc1ccc(OC(F)(F)F)cc1	u	19%
6	Cc1cccc(NNC(=S)Nc2c(C)cccc2C)c1	-6%	1%
7	CN1CCN(CCOC2Cc3ccccc3Sc3ccc(Cl)cc32)CC1 (stereo not given)	u	u
8	CCOc1ccccc1Oc1coc2cc(OC(=O)c3ccco3)ccc2c1=O	-2%	-6%
9	Cc1ncsc1C(=O)N1N=C2/C(=C/c3ccc(N4CCOCC4)cc3)CCCC2C1c1ccc(N2CCOCC2)cc1 (stereo not given)	-24%	0%
10	O=S(=O)(Nc1ccc(Br)cc1)c1cccc(NC(=S)NCCN2CCOCC2)c1	u	-4%
11	COc1ccc(CSCC(=O)N/N=C/c2ccccc2OCc2ccccc2)cc1	-6%	-25%
12	CCOC(=O)c1cc(-c2ccccc2)n(CC(=O)Nc2ccc(OC)c(OC)c2)c1C	u	u
13	COc1ccccc1CNC(=O)CCNS(=O)(=O)c1ccc2c(c1)CCCC(=O)N2	5%	6%
14	CCS(=O)(=O)N1CCN(C(C)CCc2ccccc2)CC1 (stereo not given)	-2%	u
15	Cc1cccc(CSc2nc3c(cc2C#N)CN(C)CC3)c1	-10%	-7%
16	CCCc1nc(SCc2ccccn2)c2c(=O)n(C)c(=O)n(C)c2n1	-3%	-19%
17	c1ccc2c(c1)CC/C2=N/Nc1nc2ccccc2[nH]1	-29%	-18%
18	Cc1ccc2c(c1)N(CC(=O)N1CCC(O)CC1)C(=O)CO2	11%	-4%
19	Clc1ccc(N2CCN(Cc3c[nH]c4ncccc34)CC2)cc1	u	u
20	COC(=O)c1ccc(NC(=O)CN(C)S(=O)(=O)c2ccc3c(c2)CCCC(=O)N3)cc1	-12%	-4%

Following part.
No.	mol	VACV mCherry inh	Vaccinia Venus
21	CC(C)C[C@H](NC(=O)c1nc[nH]c1C(=O)N(C)Cc1ccccc1)C(=O)OC(C)(C)C	-27%	-19%
22	COc1ccc(N(C(=O)Cn2cnc3ccccc32)C(C(=O)NC2CCCCC2)c2ccccc2)cc1 (stereo not given)	u	u
23	O=C(NCc1cccnc1)c1cc(Cl)ccc1[N+](=O)[O-]	-12%	-5%
24	O=C(C1CC1)N1CCN(c2nc3c(F)cc(F)cc3s2)CC1	-11%	0%
25	COCCN1CCN(c2c3c(nc4cc(-c5cccc(F)c5)nn24)CCC3)CC1	x	-5%
26	O=C1CCCC2=C1C(c1cccc(Br)c1)n1nc(-c3ccco3)nc1N2 (stereo not given)	-12%	-13%
27	COc1ccc(OCc2cc(C(=O)NC3CCc4ccccc43)no2)c(Cl)c1 (stereo not given)	i	-10%
28	COC(=O)c1ccc2c(=O)n(CCc3ccc(S(N)(=O)=O)cc3)c(SCC(=O)C(C)(C)C)nc2c1	-11%	-3%
29	COc1ccccc1NCC(=O)n1nc(C)cc1C	-15%	-19%
30	CN(C)S(=O)(=O)c1ccc(NC(=O)COc2ncnc3sccc23)cc1	1%	-8%
31	O=C(C[C@@H]1C[C@@H]2c3cc(NS(=O)(=O)c4ccc(F)cc4)ccc3O[C@@H]2[C@H](CO)O1)NCc1ccc(Oc2ccccc2)cc1	-20%	-17%
32	CC1CC(CCC(=O)NC(=S)Nc2ccc(S(N)(=O)=O)cc2)C(=O)O1 (stereo not given)	i	-4%
33	COc1ccc(NC(=O)CSc2nnc(-c3nonc3NC(C)=O)n2C)cc1Cl	-7%	-11%
34	Cc1ccc(C2c3[nH]c4ccccc4c3CCN2C(=O)CSc2ccccc2)cc1 (stereo not given)	-9%	-7%
35	NNC(=O)c1nc(-c2cccc(-n3cccc3)c2)no1	i[7.34 µM]	-3%[7.34 µM]
36	Cc1nc(CSc2ccc(Cl)cc2)cc(N2CCOCC2)n1	x	-11%
37	COc1cccc(NC(=O)C2(C)CCN2Cc2ccccc2Cl)c1 (stereo not given)	i	-19%
38	CC(=O)c1c(C)nc(-c2ccc3c(c2)OCO3)n1O	x	-8%
39	Cc1cccc(N2C(=O)C(Cl)=C(N3CCOCC3)C2=O)c1	i	-10%
40	OCC[C@H]1C[C@@H](O)[C@H](O)[C@@]2(CCCCO2)O1	-4%	1%

Carrying on.
No.	mol	VACV mCherry inh	Vaccinia Venus
41	CC1=CC(C)(C)NC(=S)N1c1cccc2ccccc12	x	-21%
42	Cn1cc(C(=O)c2ccc(Cl)cc2Cl)cc1C(=O)N/N=C(\N)COc1ccc(Cl)cc1Cl	x	u
43	Oc1ccc(-c2cc(-c3ccc(O)cc3)nc(-c3ccccc3)n2)cc1	u	u
44	NS(=O)(=O)c1ccc(CCNC(=O)C2CCC(Cn3c(=S)[nH]c4ccccc4c3=O)CC2)cc1 (stereo not given)	i	-7%
45	COc1ccc(NC(=O)CN2CCN(S(=O)(=O)c3ccc(Cl)cc3)CC2)cc1Cl	x	u
46	COc1cccc(C(NC(C)=O)c2nc(-c3ccc4c(c3)OCO4)cs2)c1 (stereo not given)	-10%	0%
47	Cc1cc([N+](=O)[O-])nn1CC(=O)NC1CCCCC1	i	-9%
48	COc1ccc(OC)c(-c2csc(NC(=O)c3ccc4c(c3)OCO4)n2)c1	-7%	0%
49	CCN(C(=O)C1CCN(c2ncnc3c2nc2n3CCCCC2)CC1)c1cccc(Cl)c1	-10%	-21%
50	O=S(=O)(Nc1ccc(F)cc1)c1ccc(NC(=S)Nc2ccccc2)cc1	-11%	15%
51	CC1CCC(Nc2ncnc3onc(-c4ccc(Cl)cc4)c23)CC1 (stereo not given)	-2%	-2%
52	COc1ccc(C(C)=O)cc1CSc1nc(NCc2ccccc2)c2ccccc2n1	u	-30%
53	CC(C)(C)CNC(=O)C1(C)CCN1C(=O)C1(c2ccccc2)CC1 (stereo not given)	-7%	0%
54	O=C(COc1ccc2c(c1)oc(=O)c1ccccc12)N[C@@H](Cc1c[nH]c2ccccc12)C(=O)O	-8%	1%
55	CC(C)c1nc2ccc(C(=O)NCCCN3CCN(c4ccccc4F)CC3)cc2o1	-12%	-20%
56	COc1cc(-c2noc(C)c2C#CCO)cc(OC)c1OC	-15%	-17%&-7%
57	CCOc1ccc(NC(=O)C2CCC(CNc3c(N4CCCCC4)c(=O)c3=O)CC2)cc1 (stereo not given)	-3%	-6%
58	Cc1cc(C)n(-c2nc(C)nc(N)n2)n1	i	-10%
59	Cc1cc(Cl)ccc1OCCCC(=O)OCC(N)=O	i	-4%
60	Cc1ccc2c(c1)[C@H]1[C@H](CO2)[C@H](c2ccccc2)[C@]2(C)C(=O)NCC(=O)N12	i	-14%

In the list so far, seven contain an aryl thioether with sulfur outside any ring.
No.	mol	VACV mCherry inh	Vaccinia Venus
15	Cc1cccc(CSc2nc3c(cc2C#N)CN(C)CC3)c1	-10%	-7%
16	CCCc1nc(SCc2ccccn2)c2c(=O)n(C)c(=O)n(C)c2n1	-3%	-19%
28	COC(=O)c1ccc2c(=O)n(CCc3ccc(S(N)(=O)=O)cc3)c(SCC(=O)C(C)(C)C)nc2c1	-11%	-3%
33	COc1ccc(NC(=O)CSc2nnc(-c3nonc3NC(C)=O)n2C)cc1Cl	-7%	-11%
34	Cc1ccc(C2c3[nH]c4ccccc4c3CCN2C(=O)CSc2ccccc2)cc1 (stereo not given)	-9%	-7%
36	Cc1nc(CSc2ccc(Cl)cc2)cc(N2CCOCC2)n1	x	-11%
52	COc1ccc(C(C)=O)cc1CSc1nc(NCc2ccccc2)c2ccccc2n1	u	-30%

New compounds follow.
No.	mol	VACV mCherry inh	Vaccinia Venus
61	COc1ccc(C(C(=O)NCc2ccccc2)N(Cc2ccco2)C(=O)c2cnccn2)cc1 (stereo not given)	i	-9%
62	Cc1ccc(CN2C(=O)C(F)(F)Oc3ccccc32)cc1	46%[activator]	-3%
63	COc1cc(/C=C/C(=O)Nc2ccc(OC)c(S(=O)(=O)N3CCOCC3)c2)ccc1OC(F)F	u	u
64	Cc1ccc2c(c1)c(N=NC(N)=S)c(O)n2Cc1ccccc1	0.89µM*	1µM*
65	O=C(Cn1cnc2ccccc2c1=O)NNC(=O)c1ccccc1	0%[7.34 µM]	-17%[7.34 µM]
66	C=C(Br)CN1[C@@H](Cc2ccccc2)[C@H](O)[C@@]23C=C[C@@H](C[C@@H]2S1(=O)=O)O3	-25%	-28%
67	COc1ccc(-n2cc(-c3ccccc3)c3c(NC4CCCCC4)ncnc32)cc1	-16%	-11%
68	CCC(C)C(=O)Nc1ccc(OC)cc1[N+](=O)[O-] (stereo not given)	-5%	-8%
69	CC1CCCC(C)N1C(=O)CSc1nnc(COc2ccc(F)cc2)o1 (stereo not given)	-11%	-7%
70	COc1cccc(NC(=O)CSCc2nc3sc(C)c(C)c3c(=O)[nH]2)c1	-10%	-6%
71	O=C(NC1CCCCCC1)c1cccc(S(=O)(=O)N2CCOCC2)c1	i	-18%
72	CN1C(=O)C2C(c3ccc(N(C)C)cc3)=NN(Cc3ccccc3)C2C1=O (stereo not given)	9%	2%
73	Cc1ccc(Cn2cnc3ccccc32)cc1	14%	8%
74	Cc1ccnn1CC(=O)N1CCOc2c(cc(-c3ncc(C(F)(F)F)cc3Cl)cc2OCC2CCCO2)C1 (stereo not given)	-7%	-4%
75	NS(=O)(=O)c1ccc(CNC(=O)c2ccc3c(=O)n4c(nc3c2)CCC4)cc1	-9%	-7%
76	O=S1(=O)CC(N2CC=CC2)CN1Cc1cn(Cc2cccc(Cl)c2)nn1 (stereo not given)	i	-6%
77	CO[C@H]1/C=C/O[C@@]2(C)Oc3c(C)c(O)c4c(O)c(c(C=NN5CCN(C)CC5)c(O)c4c3C2=O)NC(=O)/C(C)=C\C=C\[C@H](C)[C@H](O)[C@@H](C)[C@@H](O)[C@@H](C)[C@H](OC(C)=O)[C@@H]1C	i	-19%
78	CCc1nc(SCc2ccc(F)cc2)n[nH]1	-14%	-1%
79	CCc1nnc(NC(=O)CCC(=O)NC2CCCCCC2)s1	-13%	-2%
80	CC(=O)N1CCc2cc(Br)cc(S(=O)(=O)CCC(=O)N3CCN(c4ccccc4Cl)CC3)c21	-7%	-14%

The listing continues.
No.	mol	VACV mCherry inh	Vaccinia Venus
81	Clc1cccc(Cc2c(-c3ccco3)nc3ccc(Br)cn23)c1	6%	12%
82	COc1ccc(C(=O)N/C(=C\c2cn(S(=O)(=O)N(C)C)c3ccccc23)C(=O)N2CCCC2)cc1	-1%	0%
83	COc1ccccc1CNC(=O)COC(=O)c1ccc(S(=O)(=O)N2CCCCC2)cc1	-17%	-14%
84	CCOC(=O)c1cccc(NC(=O)c2ccc(-n3cnnn3)cc2)c1	-10%	-2%
85	CCC(C)NS(=O)(=O)c1ccc(OCC(=O)NCC2CCCO2)cc1 (stereo not given)	-14%	-10%
86	COc1ccccc1NCCC(=O)O	-4%	-6%
87	CCc1cccc(NC(=O)CCS(=O)(=O)c2cc3c4c(c2)CCN4C(=O)CC3)c1	-12%	-5%
88	O=C(NC1CCCCC1)N(CCN1CCCC1)Cc1cc2cc3c(cc2[nH]c1=O)OCCO3	i	-8%
89	C=C(C)CNC(=S)N1CCNC(=O)C1CC(=O)OC (stereo not given)	-13%	-8%
90	CC(C)CSc1n[nH]c(=S)s1	u	u
91	Cc1cccc(N2CCN(C(=O)NC(C)c3ccc(F)c(F)c3)CC2)c1C (stereo not given)	-18%	-17%
92	O=C(CCCCCNC(=O)N1CCn2c1nc1ccccc12)N[C@@H](C(=O)O)c1ccccc1	1%	0%
93	Cc1cc(NC(=O)CSc2nnnn2-c2ccc(C)c(C)c2)no1	i	-17%
94	CC(C)(C)OC(=O)COc1cc(F)ccc1[N+](=O)[O-]	i	0%
95	COc1ccc(Nc2nc(-c3ccccc3)c3ccccc3n2)cc1	-13%	-3%
96	Cc1ccc(-n2nc3cc(C)c(NC(=O)c4cccnc4)cc3n2)cc1	-15%	-8%
97	CCN(CC(=O)Nc1c(F)cccc1F)C(=O)/C=C/c1ccc(S(=O)(=O)N2CCCCCC2)cc1	-27%	-29%
98	CC(=O)c1cc(C#N)c(SCC(=O)OC(C)(C)C)nc1C	x	2%
99	O=C(COc1ccc(/C=N/NC(=O)c2ccccc2O)cc1)Nc1ccc([N+](=O)[O-])cc1	-12%	-9%
100	CC(=O)N1CCN(c2ccc(NC(=O)c3cccc(Cl)c3)cc2)CC1	i	-2%

The list continues.
No.	mol	VACV mCherry inh	Vaccinia Venus
101	CC(C)(C)c1ccc(C(CC(=O)O)NC(=O)CSc2ccccc2)cc1 (stereo not given)	-12%	-10%
102	COc1cccc(-c2nnc3sc(CN4CCCCC4)cn23)c1	-4%	-28%
103	O=C(COC(=O)c1nsc(Cl)c1Cl)NC1CCCC1	-2%	12%
104	C#CCOc1c(Cl)cc(C2C3=C(CCCC3=O)N(CC(=O)O)C3=C2C(=O)CCC3)cc1OC	i	4%
105	Cc1nn(-c2ccccc2)c(OC(=O)c2ccc(Br)cc2)c1S(=O)(=O)c1ccccc1	-4%	-6%
106	O=C(c1cccc(OC(F)F)c1)N1CCN(c2ncccn2)CC1	-9%[1.46 µM]	-10%
107	CCN(CC(=O)NCc1cccs1)C(=O)c1ccc(NS(=O)(=O)c2cccc([N+](=O)[O-])c2)cc1	-11%	3%
108	CCOC(=O)C(C)(C)N(Cc1ccccc1C)S(=O)(=O)c1ccc(Cl)c([N+](=O)[O-])c1	-18%	-18%
